# LANA-H2B inh: blocks KSHV LANA binding to histone H2A/H2B; inhibition, % (concentration not given with the values); cell-free LANA-H2A/H2B peptide, fluorescence polarization; Q9QR71; actives 0.6% (n = 320,000); in the data active = inhibition mostly above about 10%, no sharp cut-off; inactive = mostly below about 6.7%;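 also: stock transfer was 7.5 nL into about 10 µL; 0% = median of vehicle wells and 100% = median of positive control wells; one replicate is shown; the record names a cut of 25% in any replicate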
# Beta2AR agonist: agonists of human beta-2 adrenergic receptor inducing internalization; actives 0.43% (n = 340,000); Am2.2-beta2AR cells, FAP receptor internalization, flow cytometry; reference of the scale not given here; AID 504454; response, % (no concentration beside the values);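 active = response above a set limit, near 3 SD of response in nonfluorescent compounds, cut at about 42% in these data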;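 also: stock transfer was 100 nL into about 11 µL; a reference agonist was the positive control; negative values mostly stem from fluorescent compounds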
# Target sequence (P07550 whole entry, looked up): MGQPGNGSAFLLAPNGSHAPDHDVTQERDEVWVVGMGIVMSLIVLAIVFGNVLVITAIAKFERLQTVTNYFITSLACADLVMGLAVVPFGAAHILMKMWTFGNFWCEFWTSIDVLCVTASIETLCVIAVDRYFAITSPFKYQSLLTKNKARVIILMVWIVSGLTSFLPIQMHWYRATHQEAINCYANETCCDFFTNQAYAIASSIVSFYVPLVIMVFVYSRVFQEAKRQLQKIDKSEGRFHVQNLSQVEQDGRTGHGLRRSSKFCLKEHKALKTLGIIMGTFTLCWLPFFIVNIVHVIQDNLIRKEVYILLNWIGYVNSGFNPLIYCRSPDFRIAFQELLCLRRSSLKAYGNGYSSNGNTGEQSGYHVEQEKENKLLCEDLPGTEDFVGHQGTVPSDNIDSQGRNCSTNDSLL
# UCH37 inh: human UCH37 deubiquitinating enzyme inhibition | actives 0.33% (n = 330,000) | purified proteasome/UCH37, Ub-AMC cleavage fluorescence | Q9Y5K5 | inhibition, % (test concentration not listed);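 active = mean of two replicates above 20%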;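 also: 0% = compound-free wells with enzyme and 100% = wells lacking proteasome; stock transfer was 100 nL into about 20 µL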
#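 Material: human UCH37 enzyme supplied as purified proteasome complex / Amount: 0.15 nM proteasome as dispensed / Buffer or medium: pH 7.4 Tris-HCl (50 mM) with ovalbumin, ATP-MgCl2, DTT / Times: preincubation 30 min, reaction 25 min, room temperature / Technique: AMC fluorescence from Ub-AMC cleavage, excitation 355 nm, emission 460 nm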
# HNF4A DNA FP: change in binding of human HNF4 alpha to DNA; P41235; HNF4a-FITC DNA binding, fluorescence polarization, 1 h; activity change, % at 10 µM; actives 0.3% (n = 360,000); in the data active = activity change above about 30%, passing the limit was not always enough;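 also: controls were the assay level and a saturating level of protein; the project sought stronger binding though the title names inhibitors; some compounds called inactive have numbers as strong as hits; positive values seem to mean higher polarization but the record does not say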
# FGF22 binding: binders of recombinant human FGF22 by thermal shift. Q9HCT0. SYPRO orange fluorescence; percent of sucrose octasulfate shift, DMSO zero. calls only at 9.99 µM. actives 1.5% (n = 340,000). AID 651658;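 active = melting point raised past a set limit in the mean and every replicate; three in four hits are not shown here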
# Target sequence (Q9HCT0 whole entry, looked up): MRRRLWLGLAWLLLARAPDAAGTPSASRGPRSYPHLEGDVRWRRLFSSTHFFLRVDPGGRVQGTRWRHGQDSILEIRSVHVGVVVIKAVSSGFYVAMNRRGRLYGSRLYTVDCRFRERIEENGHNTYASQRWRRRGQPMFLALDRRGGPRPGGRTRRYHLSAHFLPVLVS
# Ecoli growth: E. coli growth inhibition | Escherichia coli growth, OD600, 23 h; hits give low values | OD600 absorbance (concentration not given with the values) | actives 0.21% (n = 330,000);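 active = OD600 absorbance below the run mean of sample wells minus 3.6 SD, in any replicate, cut at about 0.56 in these data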;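 also: stock transfer was 300 nL into about 60 µL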
# ALR inh: blocks human ALR sulfhydryl oxidase activity. inhibition, % (no concentration beside the values). P55789. AID 485317. purified ALR, DTT oxidation, H2O2 HRP-luminol luminescence. actives 3.8% (n = 290,000);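 active = mean and each replicate at 75% or more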;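 also: stock transfer was 7.5 nL into about 7.5 µL; 0% = neutral wells and 100% = wells with inactivated enzyme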
# Target sequence (P55789 whole entry, looked up): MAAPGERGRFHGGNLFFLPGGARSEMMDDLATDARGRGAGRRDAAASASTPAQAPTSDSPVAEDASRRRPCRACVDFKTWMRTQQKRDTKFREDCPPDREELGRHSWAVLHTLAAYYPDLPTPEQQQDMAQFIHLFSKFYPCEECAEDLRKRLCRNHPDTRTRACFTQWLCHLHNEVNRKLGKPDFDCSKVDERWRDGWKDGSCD
# Numbers without * were called inactive; i = inactive; x = no result given.
SMILES,LANA-H2B inh,Beta2AR agonist,UCH37 inh,HNF4A DNA FP,FGF22 binding,Ecoli growth,ALR inh
COC(=O)c1ccn(CSc2c(F)c(F)cc(F)c2F)n1,x,5,4.5,0.6,i,0.71,0
COc1cccc(NC(=O)c2nc3nc(C)cc(C(F)F)n3n2)c1,-3.8,-16,4.0,-0.8,i,0.69,x
COc1ccc(-n2c(O)c(Cc3ccccc3)c(=O)n3nc(-c4ccccc4)c(=O)cc23)cc1,-1.1,6,1.3,-0.4,x,0.68,5
COc1ccccc1C(=O)NC(CCSC)C(=O)OCC(=O)c1ccc[nH]1 (centres undefined),x,-6,1.0,2.6,i,0.65,x
O=C1CCCC2=C1C(c1ccccc1)n1c(s/c(=C/c3cccc(F)c3)c1=O)=N2 (centres undefined),-1.5,-2,x,-0.6,x,x,-3
CC(C)Cc1nc2sc3c(c2c(=O)n1N)CC(C)(C)OC3,1.4,-2,5.7,-0.9,i,0.66,-4
COc1ccc2nc(NCCCO)[nH]c2c1,1.8,2,1.5,-1.5,x,0.72,65
O=C(O)c1ccc(NC(=O)c2ccc3c(c2)C(=O)N(CC2CCCO2)C3=O)cc1 (centres undefined),0.3,-7,2.7,-4.2,i,0.66,0
CCN(C[C@H]1N[C@@](CC)(C(=O)OC)[C@H]2C(=O)N(Cc3ccccc3)C(=O)[C@@H]12)C(=O)COC,x,-7,6.0,0.3,i,0.71,x
CCC(C)(C)NC(=O)c1cc(S(=O)(=O)N2CCc3ccccc32)cn1C,0.6,-2,0.9,1.6,i,0.75,-9
CNC(=O)COC(=O)/C=C/c1cn(-c2ccccc2)nc1-c1ccc(C)o1,-4.4,-2,-149,2.0,i,0.68,-1
Cc1ccccc1NC(=O)Cc1ccccc1,-7.6,0,3.9,4.5,x,0.68,-4
O=C(N[C@@H](Cc1ccccc1)C(=O)N[C@@H](Cc1ccccc1)C(=O)O)OCc1ccccc1,5.6,5,3.3,1.0,i,x,x
O=C(NC1CCCC1)c1ccc(COCC(F)(F)F)o1,1.9,-2,0.9,0.4,i,0.66,-8
O=C(OCC(=O)N1CCCC1)c1cc(Cl)ccc1Cl,2.7,-3,0.4,-2.2,i,0.62,0
Cc1ccc2nc(NCCCO)nc(-c3ccccc3)c2c1,-1.6,-1,-176,-2.1,x,0.73,-7
COc1ccc(Nc2cc(C)nc(NCc3ccccc3)n2)cc1,-7.1,19,x,1.4,i,x,75*
C=CCN(C(=O)Nc1ccc(F)cc1)C1CC(=O)N(c2ccc(OC)cc2)C1=O (centres undefined),0.8,-2,2.8,-2.3,x,0.71,-2
Cn1cc([N+](=O)[O-])c(C(=O)Nc2ccn(Cc3c(F)c(F)cc(F)c3F)n2)n1,-0.9,-4,0.5,5.1,x,0.66,-2
Cc1cc(Oc2ccccc2)nc(OCC#N)n1,0.8,0,4.4,3.9,x,0.7,x
O=C(Nc1ccc([N+](=O)[O-])cc1)N1CCCCC1,5.7,6,10,3.0,i,0.61,-3
Cc1ccc(S(=O)(=O)CCC(=O)N(CCCN2CCOCC2)c2nc3ccccc3s2)cc1,-2.4,4,4.9,4.5,i,0.71,98*
O=C(N/C(=C\c1ccc(Br)cc1)C(=O)N1CCOCC1)c1ccccc1Cl,-6.3,8,3.4,-0.4,i,0.71,4
Cc1cc(=O)[nH]c(N/N=C/c2ccc(OC(=O)c3cccnc3)cc2)n1,6.2,6,x,0.2,i,x,-2
CC1(C)Cc2c(sc(N)c2C#N)C(C)(C)N1,7.6,-3,-1.7,-1.7,i,0.66,28
COc1ccc(-c2cc3cc(OC)c(OC)cc3c(C)n2)cc1C,-0.1,0,-5.1,3.2,i,0.69,-2
CCOC(=O)C1CCCN(C(=O)c2cn(CC)c3ccc(S(=O)(=O)N4CCCC4)cc3c2=O)C1 (centres undefined),4.8,-8,4.7,-1.1,x,0.69,3
C/C(=N\NC(=S)Nc1cccc(C)c1)c1ccco1,-3.6,17,x,1.7,x,x,65
O=C(CNc1cccc(S(=O)(=O)N2CCCC2)c1)Nc1cccc(Br)c1,2.1,-4,-1.0,1.1,i,0.61,3
O=C(COC(=O)c1sc2ccccc2c1Cl)NCC1CCCCC1,0.0,1,0.7,0.6,x,0.7,-9
CCOC(=O)C1=C(O)C(=O)N(c2ccc(S(N)(=O)=O)cc2)C1c1cccc([N+](=O)[O-])c1 (centres undefined),-0.3,15,2.0,2.2,i,0.71,-4
CCOC(=O)c1cccc(NC(=O)C(C)N2C(=O)c3ccccc3C2=O)c1 (centres undefined),2.8,3,0.9,1.9,x,0.78,0
CCN(CC)CCn1c(/N=C/c2ccc(OC)c(OC)c2)nc2ccccc21,0.5,-3,x,-1.8,i,x,-6
CCC1COC(c2cccn2Cc2ccc(Cl)cc2)=N1 (centres undefined),-6.4,-2,7.1,2.7,i,0.64,-12
CCN(CC(=O)Nc1cc(S(=O)(=O)N2CCCCC2)ccc1Cl)Cc1ccccc1,0.8,7,-1.0,3.9,i,0.73,-8
O=C(COC(=O)/C=C/c1ccccc1)Nc1ccc(Cl)cn1,-6.5,-4,-1.6,-0.7,i,0.69,-6
COCCN(C(=O)COC(=O)Cc1cccc(OC)c1)c1c(N)n(CC(C)C)c(=O)[nH]c1=O,-5.0,-1,0.6,0.9,i,0.63,-6
C/C(=C\c1ccc(C)o1)C(=O)c1c(C)cc(C)[nH]c1=O,-1.0,4,14,1.6,i,0.67,22
O=S(=O)(c1ccccc1)N1CCN=C1SCc1ccc(Cl)cc1,0.6,2,4.8,-0.7,i,0.69,-8
O=C(CSc1nnc(CNC(=O)c2cccs2)o1)Nc1ccccc1,4.0,-5,1.8,-3.4,i,0.68,-7
COc1cc(OC)c(C(=O)Nc2cccc3ccccc23)cc1OC,2.2,1,-3.8,1.1,i,0.72,-18
O=C(O)CCCCCN1C(=O)C2CCCCC2C1=O (centres undefined),-1.8,4,2.3,0.0,x,0.68,-5
CCN(C[C@H]1N[C@@](CC)(C(=O)OC)[C@H]2C(=O)N(C)C(=O)[C@@H]12)S(=O)(=O)c1ccc(C(F)(F)F)cc1,-7.4,2,-1.3,-0.9,i,0.71,x
Cc1cccc(N/C(N)=N/c2nc(C)cc(C)n2)c1,-3.7,4,4.9,0.2,x,0.63,-1
CCC1(CC)NC(=O)N(CC(=O)OCC(=O)Nc2ccc(C(F)(F)F)cc2)C1=O,-2.7,2,-0.3,-0.6,x,0.79,0
O=C(NCc1cccs1)c1cc(-c2ccccn2)nc2ccc(Br)cc12,3.3,0,0.4,-3.2,i,0.7,x
Cc1nc(NC(=O)CSc2nncs2)c(Cl)cc1Cl,-4.5,-8,4.5,6.5,i,0.71,-18
CC(=O)c1cccc(NC(=O)c2ccc3c(Cl)c4c(nc3c2)CCCC4)c1,-6.0,18,-1.9,0.0,i,0.69,0
CCOc1cccc(/C=N/NS(=O)(=O)c2ccc(C)c([N+](=O)[O-])c2)c1O,-1.3,2,x,-7.3,i,x,22
C[n+]1cc[nH]c1SCC(=O)c1ccccc1,4.3,-19,4.2,0.0,x,0.67,19
COc1ccc(OCc2cc(C(=O)NC(C)Cc3cccnc3)no2)c(Cl)c1 (centres undefined),-3.7,1,0.7,0.0,i,0.65,-4
CC(C)c1ccc(NC(=O)COc2ccc(F)cc2C(=O)c2cnn(-c3ccccc3)c2)cc1,1.8,-5,-1.2,-0.8,x,0.75,x
C=C(C)CNC(=S)NNC(=O)CCn1c2cc(Cl)ccc2c2ccc(Cl)cc21,-2.0,1,-1.1,-1.4,x,0.66,3
COc1ccc(S(=O)(=O)Nc2ccc3c(c2)C(=O)N([C@H](C)CO)C[C@@H](C)[C@@H](CN(C)S(=O)(=O)c2ccc(Cl)cc2)O3)cc1,-0.9,-3,3.6,0.9,i,0.78,-3
CCn1cc(CCCC(=O)NCc2ccc(OC)cc2)c2ccccc21,0.6,2,1.9,3.7,i,0.68,-6
Cc1cc(OCC(=O)Nc2ccncc2)ccc1[N+](=O)[O-],x,1,6.4,0.9,i,0.69,x
CCN(CC)C(=O)Cn1cc(C(=O)C(=O)NCC2COc3ccccc3O2)c2ccccc21 (centres undefined),4.1,-2,2.9,2.6,i,0.7,-10
CC(NC(=O)/C=C/c1ccc(Br)cc1)c1ccc(Cl)cc1 (centres undefined),-3.4,1,-0.2,-1.8,x,0.69,5
CC1(C)CC(=O)C(N=Nc2cccnc2)=C(O)C1,-1.7,-2,11,-0.9,i,0.66,4
CCOc1ccc(-n2c(=O)c3c(C)c(C)sc3n(CC(=O)NCc3ccco3)c2=O)cc1,-0.9,-7,1.5,2.7,i,0.73,x

# An excerpt from above in order of number of heavy atoms, rising.
SMILES,LANA-H2B inh,Beta2AR agonist,UCH37 inh,HNF4A DNA FP,FGF22 binding,Ecoli growth,ALR inh
O=C(Nc1ccc([N+](=O)[O-])cc1)N1CCCCC1,5.7,6,10,3.0,i,0.61,-3
O=C(NC1CCCC1)c1ccc(COCC(F)(F)F)o1,1.9,-2,0.9,0.4,i,0.66,-8
CC(NC(=O)/C=C/c1ccc(Br)cc1)c1ccc(Cl)cc1 (centres undefined),-3.4,1,-0.2,-1.8,x,0.69,5
COc1cc(OC)c(C(=O)Nc2cccc3ccccc23)cc1OC,2.2,1,-3.8,1.1,i,0.72,-18
CCC(C)(C)NC(=O)c1cc(S(=O)(=O)N2CCc3ccccc32)cn1C,0.6,-2,0.9,1.6,i,0.75,-9
CCOC(=O)c1cccc(NC(=O)C(C)N2C(=O)c3ccccc3C2=O)c1 (centres undefined),2.8,3,0.9,1.9,x,0.78,0
Cn1cc([N+](=O)[O-])c(C(=O)Nc2ccn(Cc3c(F)c(F)cc(F)c3F)n2)n1,-0.9,-4,0.5,5.1,x,0.66,-2
C=CCN(C(=O)Nc1ccc(F)cc1)C1CC(=O)N(c2ccc(OC)cc2)C1=O (centres undefined),0.8,-2,2.8,-2.3,x,0.71,-2
COCCN(C(=O)COC(=O)Cc1cccc(OC)c1)c1c(N)n(CC(C)C)c(=O)[nH]c1=O,-5.0,-1,0.6,0.9,i,0.63,-6
CC(C)c1ccc(NC(=O)COc2ccc(F)cc2C(=O)c2cnn(-c3ccccc3)c2)cc1,1.8,-5,-1.2,-0.8,x,0.75,x

# (continued)
SMILES,LANA-H2B inh,Beta2AR agonist,UCH37 inh,HNF4A DNA FP,FGF22 binding,Ecoli growth,ALR inh
O=C(Cc1ccc(-c2ccccc2)cc1)NC(c1ccccc1)c1ccccc1,4.0,-2,-2.0,5.4,i,0.69,x
CCOc1ccc2c(c1)c(N=Nc1cccc(C(=O)O)c1)c(O)n2C,3.7,-5,13,1.4,x,0.66,57
COc1ccccc1CN(C)C(=O)c1ccccc1Sc1ccccc1C#N,0.2,7,2.6,2.3,i,0.7,1
OCC[C@@H]1C[C@@H](O)[C@H](O)[C@]2(OCCCc3ccccc32)O1,1.9,1,0.1,4.7,i,x,1
CCOc1ccc(N)c(SSc2cc(OCC)ccc2N)c1,0.4,17,1.7,3.5,i,0.68,7
O=C(NC(=S)NCC1CCCO1)c1cccc([N+](=O)[O-])c1 (centres undefined),5.2,-5,1.3,2.0,x,0.67,4
CC(C)NC(=O)c1cc(-c2ccc3c(c2)OCO3)on1,2.1,0,2.5,-1.8,i,0.66,18
O=C(CSCCc1ccccn1)Nc1ccc(Br)cn1,7.4,-2,0.5,-0.1,x,0.61,99*
COc1cc(/C=C/C(=O)OCC(=O)c2ccc(OC(F)F)cc2)ccc1O,-1.4,7,-2.7,-1.0,i,0.64,-2
C[C@H]1COC(=O)CC/C=C\C[C@H](CC(=O)N(CCO)Cc2ccccc2)C(=O)N1,-3.4,2,2.5,3.7,i,x,-1
CC1=N/C(=C\c2ccc3c(c2)OCO3)C(=O)N1c1ccc(C(=O)O)cc1,1.6,-10,12,0.7,x,0.66,0
Cc1ccc(-c2nc3ccccc3n2C)o1,-1.7,-34,-19,-0.7,x,0.69,1
O=C(O)C1(Nc2ccc(Cl)cc2)CCCC1,x,3,1.1,6.7,i,0.67,x
COc1ccc(Cn2cnc3c4cc(F)ccc4n(C)c3c2=O)cc1,0.7,-5,-21,2.3,i,0.67,-4

# Screens as filed in PubChem.

# These rows are one share of the data; count on the stated rates, not on these rows.
